SARS PLP yeast: blocks SARS-CoV papain-like protease in a yeast assay. Potency, µM (top dose mostly 32.9 µM), without a hit: top-dose activity, positive = growth rescue. AID 485353. hit rate 0.19% among 330,000. S. cerevisiae expressing SARS-CoV PLpro, growth rescue; control for the full effect not named in the record; also: 0% is about no effect; nearly all actives have a fitted effect of over 55% in size; growth read by luminescence after 48 h
RE007 growth inh: less growth of the S. pombe RE007 Vpr strain; S. pombe RE007 Vpr strain, BacTiter-Glo ATP luminescence, 24 h; control for the full effect not named in the record; Potency, µM (titrated, usually from 92.2 µM), inactives show at the top dose activity change, negative = less growth; hit rate 0.21% among 360,000; active = well fitted falling curve with a large enough effect; inconclusive = small, poorly fitted or top-dose-only effect; inactive = no such curve, though single readings can be large or run the other way;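 also: % is scaled to controls: 0 for no effect and ±100 for the full control effect; nearly all actives have a fitted effect of over 50% in size; the assay follows cell death caused by Vpr and the record does not say whether a fall means rescue or toxicity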
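Fission yeast RE007 carrying one integrated HIV-1 vpr copy, seeded at OD 0.01 in PMG+AL medium with 23 nL pinned compound. Grown 24 h at 30 degrees; viability read by BacTiter-Glo luminescence after 5 min.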
StopGo reporter: lowers the luciferase signal of an FMDV 2A StopGo reporter | human cells with a luciferase reporter of 2A StopGo recoding; control for the full effect not named in the record | Potency, µM (series often up to 57.9 µM), for inactives: top-dose signal change, negative = less light | hit rate 1.2% among 410,000 | AID 1159524; active = well fitted falling curve with a large enough effect; inconclusive = small, poorly fitted or top-dose-only effect; inactive = no such curve, though single readings can be large or run the other way; tested in HEK293T cells; also: % is scaled to controls: 0 for no effect and ±100 for the full control effect; nearly all actives have a fitted effect of over 45% in size; luciferase light after 4 h
Cruzain inh Det: cruzain (T. cruzi) inhibition with detergent; hit rate 0.43% among 200,000; purified cruzain, Z-FR-AMC fluorescence, 0.01% Triton; AID 1478; P25779; Potency, µM, for inactives: max response, negative = inhibition, usual class: inhibitors; active = well fitted curve in the direction sought with a large enough effect; inconclusive = small, poorly fitted or top-dose-only effect, or another doubt; inactive = no such curve, though single readings can be large; an effect the other way counts as inactive or inconclusive;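 also: plate controls were neutral wells for no effect and buffer without enzyme for full effect; nearly all actives have a fitted effect of over 40% in size; top concentration of the series not given in the record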
Target sequence (P25779 123-467 limits assumed): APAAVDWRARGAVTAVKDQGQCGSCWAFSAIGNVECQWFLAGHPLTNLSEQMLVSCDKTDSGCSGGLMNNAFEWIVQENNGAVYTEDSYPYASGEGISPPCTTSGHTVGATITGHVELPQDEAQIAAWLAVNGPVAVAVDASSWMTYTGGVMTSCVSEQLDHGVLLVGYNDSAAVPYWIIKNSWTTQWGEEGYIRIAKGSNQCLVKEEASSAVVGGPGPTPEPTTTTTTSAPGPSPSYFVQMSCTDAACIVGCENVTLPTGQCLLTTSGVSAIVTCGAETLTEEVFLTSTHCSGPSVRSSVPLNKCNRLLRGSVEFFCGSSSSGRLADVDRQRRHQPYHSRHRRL
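15 min RT preincubation of 1.5 nM cruzain with compound, then 2 uM Z-FR-AMC added; kinetic AMC fluorescence, 60 s delta. Triton X-100 0.01%, pH 5.5.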
NS1 inh: influenza NS1 inhibition; S. cerevisiae slowed by influenza A NS1, growth recovery by OD600; AID 2326; Potency, µM (series often up to 46.1 µM), for inactives: at the top dose activity, positive = more growth; hit rate 0.4% among 270,000; also: actives are rising curves; nearly all actives have a fitted effect of over 50% in size
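S. cerevisiae expressing influenza A NS1, grown in glucose, washed, then diluted 1:100 into pH 6.0 -URA galactose medium with 23 nl compound. Growth recovery read as OD600; NS1-free strain serves as control.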
Cruzain noTriton: blocks cruzain activity in detergent-free assay; P25779; purified cruzain, Z-FR-AMC fluorescence, no detergent; Potency, µM, for the others: max response, negative = inhibition, hits mostly inhibitors; hit rate 2.3% among 200,000; active = well fitted curve in the direction sought with a large enough effect; inconclusive = small, poorly fitted or top-dose-only effect, or another doubt; inactive = no such curve, though single readings can be large; an effect the other way counts as inactive or inconclusive;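 also: plate controls were enzyme without inhibitor for no effect and buffer without enzyme for full effect; nearly all actives have a fitted effect of over 40% in size; top concentration of the series not given in the record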
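Detergent-free condition (0.00005% Triton X-100) in acetate buffer pH 5.5 with DTT. 1.5 nM enzyme and compound were pre-mixed 15 min, then 2 uM Z-FR-AMC substrate added; reaction progress from fluorescence change between first and third reads (60 s).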
LASV entry inh: inhibitors of Lassa virus binding or cell entry | Potency, µM (titrated, usually from 37.9 µM), for the others: at the top dose activity change, negative = inhibition, most hits filed as inhibitors | Lassa virus pseudotype entry inhibition, cell reporter; control for the full effect not named in the record | AID 540256 | hit rate 1.2% among 300,000; active means well fitted inhibition curve with a large enough effect; inconclusive means small, poorly fitted or top-dose-only effect, or effect the other way; inactive means flat fitted curve, though single readings scatter; tested in HEK293 cells; also: % is scaled to controls: 0 for no effect and ±100 for the full control effect; nearly all actives have a fitted effect of over 50% in size; luciferase read-out
Marburg entry inh: inhibitors of Marburg virus binding or cell entry | Marburg virus pseudotyped entry inhibition, cell reporter; control for the full effect not named in the record; about a third of the inactives were read at about 46 µM | Potency, µM (titrated, usually from 37.8 µM), for inactives: top-dose activity change, negative = inhibition, actives largely listed as inhibitors | hit rate 1.8% among 300,000; active = well fitted inhibition curve with a large enough effect; inconclusive = small, poorly fitted or top-dose-only effect, or effect the other way; inactive = flat fitted curve, though single readings scatter; tested in HEK293 cells; about a fifth of its hits are not listed in these tables; also: % is scaled to controls: 0 for no effect and ±100 for the full control effect; luciferase read-out
Active calls of the source: *; ? = inconclusive; / = not tested or not shown; & = joins results of further samples; [ ] = dose if it differs, or a comment. Unless noted, calls follow the shape of the dose curve; as a rule, active means well fitted rising curve with a large enough effect; inconclusive means small, poorly fitted or top-dose-only effect; inactive means no such curve, though single readings can be large or run the other way. Potency is read from the fitted curve at half-maximal effect. No enrichment for hits; overall some 4.7% were active at least once.

| canonical_smiles | SARS PLP yeast | RE007 growth inh | StopGo reporter | Cruzain inh Det | NS1 inh | Cruzain noTriton | LASV entry inh | Marburg entry inh |
| --- | --- | --- | --- | --- | --- | --- | --- | --- |
| COC(=O)C1=C(C)NC(=O)NC1c1ccc(OC(=O)c2ccco2)cc1 (configuration not stated) | 1% | 10% | -1% | / | -5% | / | 1% | ? |
| CC(=O)N1CC(=O)Nc2ccc(Br)cc2C1c1ccc(F)cc1 (configuration not stated) | 1% | 15% | -23% | / | -1% | / | / | / |
| Cc1ccc(NS(=O)(=O)c2ccc(C(=O)OCC(=O)Nc3cc(C)on3)cc2)cc1 | -2% | 3% | 26% | / | / | / | 7% | 12% |
| CCOc1ccc(CCNC(=O)c2ccc(C)c(-n3c(C)nc4cccnc43)c2)cc1OCC | / | / | -8% | -4.1% | / | 9% | -3%[46.1 µM] | / |
| CCCOc1ccc(CNC(=O)C2CCN(C(=O)c3sccc3-n3cccc3)CC2)cc1 | / | / | -20% | -3.4% | / | ? | / | -8%[46.1 µM] |
| CCCCN(CCNP(=O)(OCC)OCC)CP(=O)(OCC)OCC | 0% | 20% | 6% | 4.2% | -6% | 2% | -6% | 0%[46.1 µM] |
| CCOC(=O)C(=O)N1CCC(Cc2ccccc2)CC1 | -1% | 0% | 1% | / | / | / | 7% | 16%[46.1 µM] |
| COc1ccc(C)cc1NC(=O)CN1C(=O)COc2ccc(S(=O)(=O)N3CCCCCC3)cc21 | 3% | 48% | 2%&0% | -3.4% | 14% | -13% | 1%&-5%[46.1 µM] | ? |
| CC(C)CN(C(=O)COC(=O)c1ccc(Br)cc1)c1c(N)n(Cc2ccccc2)c(=O)[nH]c1=O | 1% | -17% | ? | / | / | / | ? | ? |
| Cc1ccc(C(=O)CSc2nc3cc(C(=O)NC4CCCC4)ccc3c(=O)n2CC2CCCO2)c(C)c1 (configuration not stated) | / | / | -6% | 0.8% | / | -8% | 5%[46.1 µM] | / |
| CC1Cc2ccccc2N1C(=O)C1CCCCN1S(=O)(=O)c1ccccc1 (configuration not stated) | -10% | 9% | -9% | -2.5% | 7% | 1% | 12% | ? |
| Oc1c(CN2CCOCC2)ccc2ccccc12 | -3% | -29% | 1% | / | 14% | / | -1%[46.1 µM] | 5%[46.1 µM] |
| Cc1cc(C)cc(-n2ncc3c2CCCC3NC(=O)C2(C(N)=O)CC2)c1 (configuration not stated) | -7% | -5% | ? | / | -3% | / | 1% | ? |
| O=C(O)/C=C/C(=O)Nc1ccc(C(=O)c2ccccc2)cc1 | 1% | -2% | -13% | / | -5% | / | / | / |
| Cc1cc(Cl)ccc1OCC(=O)N(Cc1ccco1)Cc1ccco1 | / | / | ? | -7.0% | / | -1% | 6%[46.1 µM] | 6%[46.1 µM] |
| COc1ccc(NC(=S)Nn2cnnc2)c(OC)c1 | 0% | -4% | -8% | / | 4% | / | -8% | -4% |
| Cc1cc(C)cc(OCc2cc(=O)n3cc(C)sc3n2)c1 | / | / | -3% | 0.6% | / | -1% | -4%[46.1 µM] | -4%[46.1 µM] |
| COc1ccc(-c2ccc(-c3noc(-c4cc(OC)cc(OC)c4)n3)c(OC)n2)cc1 | / | / | -3% | -1.0% | / | 2% | 17%[46.1 µM] | 2%[46.1 µM] |
| COc1ccc(C(=O)N(CCN2CCOCC2)CC(=O)NC2CCCC2)cc1OC | 2% | -13% | -23% | 2.4% | 4% | 8% | 6% | 0%&29% |
| CN1CCN(S(=O)(=O)c2ccc(NC(=O)c3ccc(Br)o3)cc2)CC1 | -1% | 7% | 21% | 2.6% | 0% | -3% | -2% | -1% |
| COC(=O)c1ccc(Oc2nc(NC(C)C)nc(N(C)C)n2)cc1 | 4% | -15% | -26% | 0.2% | -5% | 5% | -1% | -11% |
| O=C(NCc1ccc2c(c1)OCO2)Oc1ccccc1 | 4% | -9% | 50%[activator] | 3.0% | -10% | -8% | / | / |
| Cc1ccc(C2(C)NC(=O)N(CC(=O)NC(=O)NC(C)C)C2=O)cc1 (configuration not stated) | 3% | 9% | -3% | / | -2% | / | 1%[46.1 µM] | -1%[46.1 µM] |
| C=CCc1c(C)nc2nc(SCC(=O)Nc3ccc(C)c(C)c3)nn2c1C | / | / | 0% | 0.0% | / | 11% | 28%[46.1 µM] | / |
| COc1cccc(C(=O)Nc2cccc(-c3ccc(N4CCOCC4)nn3)c2)c1OC | 0% | -10% | 0% | / | / | / | 13% | ? |
| O=C(C1CCCN(S(=O)(=O)c2cccc3cccnc23)C1)N1CCN(c2ccccc2F)CC1 (configuration not stated) | 10% | 6% | -5% | -3.1% | -57% | 4% | / | 1% |
| CCc1ccc(C(CNc2nc(C(F)(F)F)nc3ccccc23)N(C)C)cc1 (configuration not stated) | -3% | -8% | ? | / | -11% | / | 10µM* | ? |
| O=C1Nc2ccccc2C1C(C[N+](=O)[O-])c1ccccc1 (configuration not stated) | 0% | -7% | -12% | / | 1% | / | 28% | 12% |
| Cc1ccc(N(C)C(CNS(=O)(=O)c2ccccc2)c2ccccc2)cc1 (configuration not stated) | / | / | 36%[activator] | -10.0% | / | 1% | -1%[46.1 µM] | -15%[46.1 µM] |
| CCOC(=O)c1c(C)[nH]c(C)c1S(=O)(=O)N(C)CC(=O)Nc1ccc(C)cc1C | / | / | -16% | 2.2% | / | 8% | -16%[46.1 µM] | / |
| COc1ccc(CN2CCCC(C(=O)N3CCCCC3)C2)cc1 (configuration not stated) | 0% | -6% | -5% | / | -1% | / | / | / |
| Cc1cc(OC(=O)C2CC2)c([N+](=O)[O-])c(=O)[nH]1 | 0% | -5% | -15% | / | / | / | 3%[46.1 µM] | -12%[46.1 µM] |
| CCc1ccc(OCC(=O)Nc2ccc3oc(=O)ccc3c2)cc1 | -2% | -2% | -22% | / | -3% | / | / | -22%[46.1 µM] |
| O=C(Cn1nnc(-c2cccs2)n1)N1c2ccccc2Sc2ccc(C(F)(F)F)cc21 | / | -13% | 3% | / | / | / | -14% | ? |
| CC(=O)Nc1ccc(Nc2ccc(S(=O)(=O)C(F)(F)F)cc2[N+](=O)[O-])cc1 | -60% | -2% | 0% | -12% | -27% | -10% | -17% | -36% |
| Cc1ccc2c(c1)S/C(=C/c1ccc[n+](CCO)c1)N2C | 1% | ? | ? | / | / | / | / | ? |
| COc1c(O)ccc(/C=N/NC(=O)c2ccc3c(c2)OCCO3)c1[N+](=O)[O-] | 1% | -18% | 27% | / | 3% | / | ? | ? |
| COc1ccc(C(=O)CCC(=O)N2CCN(c3cccc(Cl)c3)CC2)cc1 | ? | 9% | ? | / | -22% | / | / | / |
| CC1(C)Cc2c(cnn2-c2ccc(F)cc2)C(NC(=O)Cn2cncn2)C1 (configuration not stated) | 4% | 3% | -6% | / | -6% | / | ? | 1% |
| CCNC(=S)N/N=C/c1ccc(C#N)cc1 | 6% | -11% | -10% | / | / | / | ? | ? |
| Cc1cccc(NC(=O)CC2NC3CCCCC3NC2=O)c1 (configuration not stated) | 1% | 0% | 4% | 5.3% | 1% | -6% | 1% | 17% |
| C[C@H](NC(=O)c1nc[nH]c1C(=O)N[C@@H](Cc1ccccc1)C(=O)OCc1ccccc1)C(=O)OCc1ccccc1 | 4% | 0% | -24% | / | 7.9µM* | / | / | / |
| Cc1ccc(NC(=O)C(C)c2ccc(-c3ccccc3)c(F)c2)c(C)c1 (configuration not stated) | 9% | 0% | -20% | 3.0% | 0% | -5% | -11% | 1% |
| CNC(=O)c1c(NC(=O)C(C)C)sc2c1CCC2 | -1% | 15% | 1% | / | -12% | / | 2% | -6%[46.1 µM] |
| CN(C(=O)COC(=O)c1n[nH]c2ccccc12)c1ccccc1 | 0% | 17% | 15% | / | -4% | / | -27%[46.1 µM] | ? |
| CC(C)Cn1c(-c2ccccc2Cl)nc2ccccc21 | / | / | -12% | -6.2% | / | -9% | 24%[46.1 µM] | 9%[46.1 µM] |
| O=C(OCn1nnc2ccccc2c1=O)c1ccco1 | -4% | 15% | -18% | -12% | 1% | -3% | / | / |
| c1ccc(OCc2nn3c(-c4cccnc4)nnc3s2)cc1 | -2% | 10% | 3% | -1.6% | -8% | -1% | -4% | 6% |
| CCOC(=O)c1cc2c(=O)n3ccccc3nc2n(Cc2ccco2)c1=NC(=O)c1cccc(F)c1 | / | / | 19% | -16% | / | -6% | 0%[46.1 µM] | -29%[46.1 µM] |

Gathered by group, the compounds so far containing fluorine.
| canonical_smiles | SARS PLP yeast | RE007 growth inh | StopGo reporter | Cruzain inh Det | NS1 inh | Cruzain noTriton | LASV entry inh | Marburg entry inh |
| --- | --- | --- | --- | --- | --- | --- | --- | --- |
| CC(=O)N1CC(=O)Nc2ccc(Br)cc2C1c1ccc(F)cc1 (configuration not stated) | 1% | 15% | -23% | / | -1% | / | / | / |
| O=C(C1CCCN(S(=O)(=O)c2cccc3cccnc23)C1)N1CCN(c2ccccc2F)CC1 (configuration not stated) | 10% | 6% | -5% | -3.1% | -57% | 4% | / | 1% |
| CCc1ccc(C(CNc2nc(C(F)(F)F)nc3ccccc23)N(C)C)cc1 (configuration not stated) | -3% | -8% | ? | / | -11% | / | 10µM* | ? |
| O=C(Cn1nnc(-c2cccs2)n1)N1c2ccccc2Sc2ccc(C(F)(F)F)cc21 | / | -13% | 3% | / | / | / | -14% | ? |
| CC(=O)Nc1ccc(Nc2ccc(S(=O)(=O)C(F)(F)F)cc2[N+](=O)[O-])cc1 | -60% | -2% | 0% | -12% | -27% | -10% | -17% | -36% |
| CC1(C)Cc2c(cnn2-c2ccc(F)cc2)C(NC(=O)Cn2cncn2)C1 (configuration not stated) | 4% | 3% | -6% | / | -6% | / | ? | 1% |
| Cc1ccc(NC(=O)C(C)c2ccc(-c3ccccc3)c(F)c2)c(C)c1 (configuration not stated) | 9% | 0% | -20% | 3.0% | 0% | -5% | -11% | 1% |
| CCOC(=O)c1cc2c(=O)n3ccccc3nc2n(Cc2ccco2)c1=NC(=O)c1cccc(F)c1 | / | / | 19% | -16% | / | -6% | 0%[46.1 µM] | -29%[46.1 µM] |

Screening data: PubChem BioAssay, National Center for Advancing Translational Sciences (NCATS)
